CFTR F508del = compounds raising F508del-CFTR protein level – cell-based, HeLa F508del-CFTR, immunofluorescence, viability, primary screen (AID 1224863). 10,000 compounds, 0.1% hits. HeLa F508del-CFTR, immunofluorescence total CFTR, 24 h; by the record results were divided by relative cell number; some inactives read as strong as hits. calls, or highest fold increase where a dose series was run; in the data nearly all actives have a first-pass fold increase above 1.5; a few of its hits are not listed in these tables;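 further: total CFTR protein by anti-CFTR immunofluorescence in fixed cells; first pass at 25 µM or 10 µg/mL by library and series up to twice that; 1 = untreated cells; first-pass hits also needed half or more of the cells alive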
CFTR F508del fold 25 µM = also measured in CFTR F508del; calls as there; fold increase; measured here: primary screen single dose 25 uM; library dosed in µM
CFTR F508del fold 10 ug/mL = recorded beside CFTR F508del, whose call it bears; fold increase; measured here: primary screen 10 ug/mL
CFTR F508del viability 25 µM = recorded beside CFTR F508del, whose call it bears; viability, %; measured here: primary viability 25 uM; library dosed in µM;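 0% = killed and 100% = untreated cells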
CFTR F508del viability 10 ug/mL = further read-out of CFTR F508del, marked with its call; viability, %; measured here: primary viability 10 ug/mL;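 0% = killed and 100% = untreated cells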
The depositor's hits bear a star; i = inactive; nt = not tested or not shown; & = joins results of further samples.

SMILES	CFTR F508del	CFTR F508del fold 10 ug/mL	CFTR F508del viability 10 ug/mL	others
Cn1c(=O)/c(=C/c2cc(Cl)c3c(c2)OCCO3)s/c1=C\C(=O)C(C)(C)C	i	1	99
CCn1cnn(CN2CCC(NC(=O)C3CC3)CC2)c1=S	i	0.9	91
CCOC(=O)c1[nH]c(C)c(C(=O)NC2CC2)c1C	i	1	86
CC(C)(C)c1nc2cc(NS(=O)(=O)c3cccs3)ccc2o1	i	1.1	95
O=C(O)CCc1ccc(Cl)s1	i	1.1	100
Cc1cc(C(=O)CN2C(=O)CC3(CCCC3)C2=O)c(C)n1C1CC1	i	1	86
O=C(Nc1ccc(Br)cn1)C1CCCN(Cn2ncn(C3CC3)c2=S)C1 (stereo unspecified)	i	0.9	83
Oc1cccc(-n2c(-c3ccccc3)cn3c4ccccc4nc23)c1	i	0.83	65
Cc1ccc(OCCNc2ccc3nnnn3n2)c(C)c1	i	0.97	94
CC(=O)N1C=Cc2ccccc2C1CC(=O)Nc1ccc2c3c(cccc13)CC2 (stereo unspecified)	i	0.91	82
Cc1ccc(-n2nnnc2SCc2cn3cccc(C)c3n2)cc1C	i	0.98	79
C(=C\c1cccs1)/c1nc2cc(-c3ccccc3)ccc2o1	i	1.1	95
Cn1cccc1C(=O)NC(=O)COC(=O)c1ccc([N+](=O)[O-])o1	i	0.94	91
CN[C@@H]1[C@H](OC2[C@H](O[C@H]3[C@H](O)[C@@H](O)[C@H](N=C(N)N)[C@@H](O)[C@@H]3N=C(N)N)O[C@@H](C)[C@]2(O)C=O)O[C@@H](CO)[C@H](O)[C@H]1O (stereo partly specified)	i	nt	nt	CFTR F508del fold 25 µM=1;CFTR F508del viability 25 µM=102
O=C(O)c1ccc(Br)cc1Oc1ccc(F)cc1	i	0.85	78
O=c1oc2cc(Cl)ccc2n1Cc1cc(-c2ccco2)on1	i	0.98	90
O=S(=O)(NC1CCC(NS(=O)(=O)c2cccs2)CC1)c1cccs1 (stereo unspecified)	i	1.1	99
Clc1ccc2nc(CSc3nnnn3Cc3ccco3)cn2c1	i	0.97	107
CC(CCC(=O)O)[C@H]1CCC2C3C(=O)C[C@@H]4CC(=O)CC[C@]4(C)C3CC(=O)[C@@]21C (stereo partly specified)	i	nt	nt	CFTR F508del fold 25 µM=1.1;CFTR F508del viability 25 µM=74
CCn1cc(C#N)c(=O)n(Cc2cc(=O)oc3cc(C)c(C)cc23)c1=O	i	1	99
COC(=O)C1=C(C)NC(=S)NC1c1ccc(OC(F)(F)F)cc1 (stereo unspecified)	i	0.97	80
CSc1ccc(/C=C(/c2ccc3ccccc3n2)c2nc3ccccc3[nH]c2=O)cc1	i	1.1	91
C[C@@H]1CC2C3C[C@H](F)C4=CC(=O)C=C[C@]4(C)[C@@]3(F)[C@@H](O)C[C@]2(C)[C@@]1(O)C(=O)CO (stereo partly specified)	i	nt	nt	CFTR F508del fold 25 µM=1.3;CFTR F508del viability 25 µM=97
Cc1ccc2c(Cl)cc(Cl)c(OCc3cc(=O)n(C)c(=O)n3C)c2n1	i	0.89	97
COc1cccc2c1C(=O)c1c(O)c3c(c(O)c1C2=O)C[C@@](O)(C(=O)O)C[C@@H]3C[C@H]1C[C@H](N)[C@H](O)[C@H](C)O1	i	nt	nt	CFTR F508del fold 25 µM=0.57;CFTR F508del viability 25 µM=40
Cc1nc(SCc2nc3ccsc3c(=O)[nH]2)n(C2CCCC2)c1C	i	0.95	95
O=C(OCn1nnc2ccccc2c1=O)c1cc(-c2ccc(Br)cc2)nc2ccccc12	i	1.1	95
CCC(C)C(=O)NCC(=O)O (stereo unspecified)	i	1.1	98
COc1cc(CNC(C)c2cccc(Br)c2)cc(OC)c1OC (stereo unspecified)	i	0.98	84
CCc1cccc(OCC(O)CNCC2CCCN2CC)c1 (stereo unspecified)	i	1.1	88
CCOC(=O)c1c(C)oc2nc(CN3CCCC(C(F)(F)F)C3)nc(N)c12 (stereo unspecified)	i	1.1	97
Fc1ccc(CNc2nnc(SCC3CCCO3)s2)cc1 (stereo unspecified)	i	1	97
CCS(=O)(=O)N(C)CCCN	i	1.1	90
CC1c2cccn2CCN1S(=O)(=O)c1ccc(Br)cc1Cl (stereo unspecified)	i	1.2	114
CO[C@H]1/C=C/O[C@@]2(C)Oc3c(C)c(O)c4c(O)c(c5c(nc6cc(C)ccn65)c4c3C2=O)NC(=O)/C(C)=C\C=C\[C@H](C)[C@H](O)[C@@H](C)[C@@H](O)[C@@H](C)[C@H](OC(C)=O)[C@@H]1C	i	nt	nt	CFTR F508del fold 25 µM=1.1;CFTR F508del viability 25 µM=103
CONC(=O)CCN=C1NS(=O)(=O)c2ccccc21	i	1.1	109
c1ccc(Cc2ccc(OCCn3ccnc3)cc2)cc1	i	0.88	92
COc1cc(Br)c(S(=O)(=O)NCC2(c3ccccc3)CC2)cc1OC	i	0.98	86
O=C1CCCCC1Sc1nnc(-c2sc3ccccc3c2Cl)o1 (stereo unspecified)	i	1.2	92
CCCc1cc(=O)[nH]c(=S)[nH]1	i	nt	nt	CFTR F508del fold 25 µM=0.89;CFTR F508del viability 25 µM=98
CC(=O)Nc1nnc(S(N)(=O)=O)s1	i	nt	nt	CFTR F508del fold 25 µM=0.94;CFTR F508del viability 25 µM=83
CCn1c(=O)c2ccccc2n2c(CN3C(=O)NC4(CCc5ccccc54)C3=O)nnc12 (stereo unspecified)	i	1.1	98
COc1ccc(OC)c(C(O)CNC(=O)CN)c1 (stereo unspecified)	i	nt	nt	CFTR F508del fold 25 µM=1.3;CFTR F508del viability 25 µM=94
CN1CCN(S(=O)(=O)c2ccc(NCCCN(C)CC(F)(F)F)c([N+](=O)[O-])c2)CC1	i	0.88	107
CC(C)CC(C(=O)NC1CCc2ccccc21)N1C(=O)c2ccccc2C1=O (stereo unspecified)	i	1.1	89
O=C1C2CC3CC1CC(O)(C3)C2	i	nt	nt	CFTR F508del fold 25 µM=0.97;CFTR F508del viability 25 µM=100
COc1cc(CN(C)C2CCCc3ccccc32)ccc1OC(F)F (stereo unspecified)	i	1.1	84
CCCCc1nc2ccccc2n1Cc1cc(Cl)cc2c1OCOC2	i	0.91	108
Cc1nc(SCC(=O)N(C)CCC#N)c2c3c(sc2n1)CCC3	i	0.97	88
Cc1nnc(SCC2=C(C(=O)O)N3C(=O)[C@@H](NC(=O)Cn4cnnn4)[C@H]3SC2)s1	i	nt	nt	CFTR F508del fold 25 µM=1;CFTR F508del viability 25 µM=89
C=CCN1C(=O)C(=O)N(CC(=O)N2CCc3ccccc32)C1=O	i	0.94	110
CCCCN1C(=O)/C(=C/c2ccc(C)o2)NC1=S	i	1	97
CC(C)(C)n1nnnc1SCc1ccc(Cl)c2cccnc12	i	1	83
CCCC[C@@H](CC)COC(=O)/C=C/c1ccc(OC)cc1	i	nt	nt	CFTR F508del fold 25 µM=1;CFTR F508del viability 25 µM=98
CC(C)(C)Nc1nnc(SCn2nnc3ccccc3c2=O)s1	i	1.1	101
CCOc1ccc(Br)cc1S(=O)(=O)Nc1ccc2c(c1)OCCO2	i	0.97	88
CC1CCc2c(sc3ncnc(N4CCNC(=O)CC4)c23)C1 (stereo unspecified)	i	1.1	92
CCCCOCCCNS(=O)(=O)c1ccc(S(=O)(=O)C(F)F)cc1	i	0.94	80
Cc1noc(C)c1CCC(=O)N1CCN(S(=O)(=O)c2ccc(Cl)s2)CC1	i	1	89
CC(C)(C)C(=O)N1CCC(NS(=O)(=O)c2cccs2)CC1	i	1.1	101
The list continues.
SMILES	CFTR F508del	CFTR F508del fold 10 ug/mL	CFTR F508del viability 10 ug/mL	others
CC1CCC(Nc2cc(F)ccc2[N+](=O)[O-])CC1 (stereo unspecified)	i	1	106
CC(C)CSc1nnc(COc2ccc(Cl)cc2)o1	i	0.83	85
O=C(CCNC(=O)c1ccoc1)NC1CCCCCCC1	i	0.97	92
O=C(O)C1=NN(c2ccc(Cl)cc2)C(=O)CC1	i	1	104
C[C@]12CC[C@@H]3c4ccc(O)cc4C[C@@H](CCCCCCCCCS(=O)CCCC(F)(F)C(F)(F)F)[C@H]3[C@@H]1CC[C@@H]2O (stereo partly specified)	i	nt	nt	CFTR F508del fold 25 µM=1.1&1.1;CFTR F508del viability 25 µM=118&86
O=c1oc2cc(Br)ccc2n1CN1CCN(Cc2ccncc2)CC1	i	0.94	101
CN(CCOc1ccc(CC2SC(=O)NC2=O)cc1)c1ccccn1 (stereo unspecified)	i	nt	nt	CFTR F508del fold 25 µM=1.1&1&0.98&1.1;CFTR F508del viability 25 µM=84&83&86&86
O=C(CCN1C(=O)NC2(CCCC2)C1=O)Nc1ccc(N2CCCC2=O)cc1	i	1.2	69
Cc1ccc(-c2nnc(NCCC(C)C)c3ccccc23)cc1C	i	0.94	97
Cc1nc(C#N)c(N2CCN(C(=O)Cn3nc(C)c([N+](=O)[O-])c3C)CC2)o1	i	1.2	94
Nc1nc(/C(=C/CC(=O)O)C(=O)N[C@@H]2C(=O)N3C(C(=O)O)=CCS[C@H]23)cs1	i	nt	nt	CFTR F508del fold 25 µM=1.2;CFTR F508del viability 25 µM=99
Cc1nc2ccccc2nc1SCCn1nc2ccccn2c1=O	i	1.1	104
O=S(=O)(NCC12CC3CC(CC(C3)C1)C2)c1ccc2c(c1)OCCO2	i	0.94	96
Cc1oc2nc[nH]c(=O)c2c1C(=O)NC(C)C1CC1 (stereo unspecified)	i	1	81
O=C1CC2(CCCCC2)C(=O)N1CN1CCC(c2nc3ccccc3o2)CC1	i	1.1	98
Cn1c(C2CC2)nn(CN2CCN(Cc3ccc(OC(F)(F)F)cc3)CC2)c1=S	i	1.1	100
CC(C)NCC(O)COc1cccc2[nH]ccc12 (stereo unspecified)	i	nt	nt	CFTR F508del fold 25 µM=1&1;CFTR F508del viability 25 µM=100&83
O=C1CCCN1c1ccc(NS(=O)(=O)c2ccc(Br)s2)cc1Cl	i	0.94	98
NCCOCCOc1ccccc1	i	0.87	91
Cc1cnc(NC(=O)C2COCCO2)s1 (stereo unspecified)	i	0.95	97
CN(C)c1ccc(CNS(=O)(=O)c2cc(Br)ccc2Br)cc1	i	0.9	78
CCC(C)[C@H]1O[C@]2(CC[C@@H]1C)C[C@@H]1C[C@@H](C/C=C(\C)[C@@H](OC3C[C@H](OC)C(O[C@H]4C[C@H](OC)[C@@H](O)[C@H](C)O4)[C@H](C)O3)[C@@H](C)/C=C/C=C3\CO[C@@H]4[C@H](O)C(C)=C[C@@H](C(=O)O1)[C@]34O)O2 (stereo partly specified)	i	nt	nt	CFTR F508del fold 25 µM=0.93;CFTR F508del viability 25 µM=76
CC(C(=O)O)c1cccc(C(=O)c2ccccc2)c1 (stereo unspecified)	i	nt	nt	CFTR F508del fold 25 µM=0.97&1.1&0.99;CFTR F508del viability 25 µM=94&92&105
OCCN(CCO)CC(O)COCCC12CC3CC(CC(C3)C1)C2 (stereo unspecified)	i	1.1	105
Clc1ccc(-c2noc(CN3CCNCC3)n2)cc1	i	0.97	97
Cn1nnnc1SCc1ccc(-n2cccn2)cc1	i	0.99	99
CCC(CC)N(Cn1nc(-c2cccnc2)n(C2CC2)c1=S)C1CC1	i	1.1	102
CCCCn1nnnc1CN1C(=O)NC(C)(c2ccc3c(c2)CCC3)C1=O (stereo unspecified)	i	1	85
C[C@@H]1CC[C@H]2[C@@H](C)C(O)O[C@@H]3OC4(C)CC[C@@H]1[C@]32OO4 (stereo partly specified)	i	nt	nt	CFTR F508del fold 25 µM=0.98;CFTR F508del viability 25 µM=103

Structural class: the entries above with two or more sulfur atoms
SMILES	CFTR F508del	CFTR F508del fold 10 ug/mL	CFTR F508del viability 10 ug/mL	others
CC(C)(C)c1nc2cc(NS(=O)(=O)c3cccs3)ccc2o1	i	1.1	95
O=S(=O)(NC1CCC(NS(=O)(=O)c2cccs2)CC1)c1cccs1 (stereo unspecified)	i	1.1	99
Cc1nc(SCc2nc3ccsc3c(=O)[nH]2)n(C2CCCC2)c1C	i	0.95	95
Fc1ccc(CNc2nnc(SCC3CCCO3)s2)cc1 (stereo unspecified)	i	1	97
O=C1CCCCC1Sc1nnc(-c2sc3ccccc3c2Cl)o1 (stereo unspecified)	i	1.2	92
CC(=O)Nc1nnc(S(N)(=O)=O)s1	i	nt	nt	CFTR F508del fold 25 µM=0.94;CFTR F508del viability 25 µM=83
Cc1nc(SCC(=O)N(C)CCC#N)c2c3c(sc2n1)CCC3	i	0.97	88
Cc1nnc(SCC2=C(C(=O)O)N3C(=O)[C@@H](NC(=O)Cn4cnnn4)[C@H]3SC2)s1	i	nt	nt	CFTR F508del fold 25 µM=1;CFTR F508del viability 25 µM=89
CC(C)(C)Nc1nnc(SCn2nnc3ccccc3c2=O)s1	i	1.1	101
CCCCOCCCNS(=O)(=O)c1ccc(S(=O)(=O)C(F)F)cc1	i	0.94	80
Cc1noc(C)c1CCC(=O)N1CCN(S(=O)(=O)c2ccc(Cl)s2)CC1	i	1	89
CC(C)(C)C(=O)N1CCC(NS(=O)(=O)c2cccs2)CC1	i	1.1	101
Nc1nc(/C(=C/CC(=O)O)C(=O)N[C@@H]2C(=O)N3C(C(=O)O)=CCS[C@H]23)cs1	i	nt	nt	CFTR F508del fold 25 µM=1.2;CFTR F508del viability 25 µM=99
O=C1CCCN1c1ccc(NS(=O)(=O)c2ccc(Br)s2)cc1Cl	i	0.94	98

Some of the compounds tested; count on the stated rates, not on these rows.
